Screening results deposited in PubChem by Broad Institute.
Vaccinia stage – Vaccinia orthopox stage-specific inhibition; Vaccinia-infected cells, mCherry/Venus stage reporter fluorescence; hits give low values; some inactives read as strong as hits; activity change (mCherry), % (no concentration beside the values); hit rate 0.01% among 89,000;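 active = mCherry past -33% and 40 or more points under the early reporter, replicates agreeing; inconclusive = past -33% without that gap or agreement; tested in A549 cells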;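 also: scaled between vehicle wells and reference inhibitor wells; 23 nL library stock went into each well; one replicate is shown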
Vaccinia stage Venus – further read-out of Vaccinia stage, marked with its call; activity change (Venus), %; measured here: Venus reporter, other viral stage;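 negative = less Venus signal; first of two replicates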
* = called active by the depositor; ? = inconclusive; . = not tested or not shown; & = joins results of further samples. Only part of the results is shown; count on the stated rates, not on these rows.

SMILES | Vaccinia stage | Vaccinia stage Venus
COc1cccc(S(=O)(=O)N(C)C[C@@H]2Oc3ncc(C#Cc4ccccc4)cc3C(=O)N([C@H](C)CO)C[C@@H]2C)c1 | ? | .
C[C@@H](NC(=O)C[C@H]1C[C@@H]2c3cc(NC(=O)C4CCOCC4)ccc3O[C@@H]2[C@H](CO)O1)c1ccccc1 | 8 | 5
CC(C)NC(=O)N(C)C[C@@H]1OCCCC[C@H](C)Oc2ccc(NC(=O)c3ccccc3)cc2C(=O)N([C@H](C)CO)C[C@H]1C | 1 | 2
CN1C(=O)c2cc(NC(=O)c3cccs3)ccc2OC[C@@H]2O[C@@H](CC(=O)N3CCOCC3)CC[C@@H]21 | 4 | 8
C/C=C/c1ccc([C@@H]2[C@@H](CO)N3CCCCN(S(=O)(=O)c4cccc(C)c4)C[C@H]23)cc1 | -19 | -23
C[C@H](CO)N1C[C@H](C)[C@@H](CN(C)Cc2ccccc2)Oc2ccc(NC(=O)CCCN(C)C)cc2C1=O | 9 | 5
C[C@H](CO)N1C[C@H](C)[C@H](CN(C)C(=O)Nc2cccc3ccccc23)Oc2ccc(NC(=O)NC3CCCCC3)cc2CC1=O | 15 | 15
CNC[C@H]1Oc2ncc(C#CCC(C)C)cc2C(=O)N([C@H](C)CO)C[C@H]1C | -9 | -3
Cc1noc(C)c1NC(=O)Nc1ccc2c(c1)CC(=O)N([C@@H](C)CO)C[C@H](C)[C@@H](CN(C)CC1CC1)O2 | 23 | 12
C[C@H](CO)N1C[C@H](C)[C@H](CN(C)C(=O)Cc2ccccn2)Oc2ncc(-c3cncnc3)cc2C1=O | 13 | 8
C[C@@H]1CCCCO[C@H](CN(C)Cc2ccc3c(c2)OCO3)[C@H](C)CN([C@@H](C)CO)C(=O)c2cc(NS(=O)(=O)c3ccccc3)ccc2O1 | ? | .
CCNC(=O)C[C@@H]1CC[C@@H]2[C@H](COc3ccc(NC(=O)Nc4ccc(F)cc4)cc3C(=O)N2C)O1 | 16 | 15
O=C(C[C@@H]1CC[C@@H]2[C@H](COC[C@@H](O)CN2C(=O)c2ccccn2)O1)N1CCN(c2ccccc2)CC1 | 2 | 0
C[C@@H]1CN([C@H](C)CO)C(=O)c2cc(C#C[C@@H](C)O)cnc2O[C@@H]1CN(C)Cc1ccccn1 | 16 | 3
CO[C@@H]1CN(C)C(=O)c2cc(NS(=O)(=O)c3cccc(F)c3)ccc2OC[C@@H](C)N(Cc2cc(F)ccc2F)C[C@@H]1C | ? | .
O=C(C[C@@H]1CC[C@@H]2[C@H](COC[C@@H](O)CN2Cc2ccncc2)O1)NCc1ccncc1 | 15 | 14
C[C@H]1CN([C@@H](C)CO)C(=O)c2cc(NC(=O)CCCCCC(=O)Nc3ccccc3N)ccc2O[C@@H]1CN(C)C | 1 | -2
O=C(C[C@@H]1CC[C@@H]2[C@H](COC[C@H](O)CN2C(=O)c2ccccc2)O1)N1CCOCC1 | 8 | 5
COc1ccccc1-c1ccc2c(c1)O[C@@H](CN(C)C(=O)c1cccnc1)[C@H](C)CN([C@H](C)CO)S2(=O)=O | 13 | 8
C[C@@H]1CN([C@H](C)CO)C(=O)c2cc(NS(=O)(=O)c3cn(C)cn3)ccc2O[C@H]1CN(C)Cc1ccc(Oc2ccccc2)cc1 | 14 | 8
CN(C)C(=O)[C@H]1[C@H](CO)[C@H]2Cn3c(ccc(C4=CCCC4)c3=O)[C@@H]1N2Cc1ccccn1 | 5 | 15
CC(C)NC(=O)N[C@@H]1C=C[C@@H](CC(=O)NC2Cc3ccccc3C2)O[C@@H]1CO | 4 | 6
COc1ccccc1CNC(=O)C[C@@H]1C[C@@H]2c3cc(NC(=O)C4CCOCC4)ccc3O[C@@H]2[C@H](CO)O1 | -4 | -7
COc1ccc2c3c(n(C)c2c1)[C@H](CO)N(S(C)(=O)=O)CC31CN(C(=O)Nc2cccc(F)c2)C1 | -5 | 5
CCS(=O)(=O)Nc1ccc2c(c1)C(=O)N(C)[C@H]1CC[C@H](CC(=O)NCc3ccc(OC)cc3)O[C@H]1CO2 | 11 | 6
COc1ccccc1S(=O)(=O)N[C@H]1C=C[C@H](CC(=O)NCc2cccc(F)c2)O[C@@H]1CO | 5 | 1
CCCC#Cc1ccc([C@@H]2[C@H](CO)N3C(=O)CN(C(=O)Nc4ccccc4F)C[C@@H]23)cc1 | 4 | -9
CNC[C@@H]1Oc2ccc(NC(=O)C3CC3)cc2C(=O)N([C@@H](C)CO)C[C@@H]1C | 2 | 0
O=C(C[C@H]1C=C[C@H](NS(=O)(=O)c2ccc(F)cc2)[C@H](CO)O1)NCc1ccccc1F | 9 | 2
C[C@H](CO)N1C[C@H](C)[C@H](CN(C)C(=O)c2ccncc2)OCCCC[C@H](C)Oc2ccc(NC(=O)c3ccccc3)cc2C1=O | 18 | 4
O=S(=O)(c1ccccc1)N1CCCCN2[C@H](CO)[C@H](c3ccc(-c4cncnc4)cc3)[C@H]2C1 | 1 | -2
COc1ccccc1C#Cc1ccc([C@H]2[C@@H](C#N)N(C(=O)C3CCCCC3)[C@H]2CO)cc1 | ? | .
C[C@@H]1CN([C@@H](C)CO)S(=O)(=O)c2ccc(C#CC3CC3)cc2O[C@H]1CN(C)C(=O)C1CCC1 | -5 | -3
Cn1cnc(S(=O)(=O)N[C@@H]2CC[C@@H](CC(=O)NCC3CC3)O[C@H]2CO)c1 | -3 | 2
Cc1cccc(S(=O)(=O)N2C[C@@H](O)COC[C@@H]3O[C@@H](CC(=O)NCc4ccc5c(c4)OCO5)CC[C@H]32)c1 | -9 | -4
C[C@@H]1CCCCO[C@@H](CN(C)C(=O)c2ccncc2)[C@H](C)CN([C@@H](C)CO)C(=O)c2cc(N(C)C)ccc2O1 | 7 | 7
CCCNC(=O)Nc1ccc2c(c1)OC[C@@H](C)N(C(=O)C1CC1)C[C@H](C)[C@@H](OC)CN(C)C2=O | 5 | 13
C[C@@H]1CCCCO[C@H](CN(C)Cc2ccc3c(c2)OCO3)[C@@H](C)CN([C@H](C)CO)C(=O)c2cc(NC(=O)Nc3ccc4c(c3)OCO4)ccc2O1 | -18 | -21
CNC[C@@H]1Oc2c(NC(=O)c3ccc(-c4nccs4)cc3)cccc2C(=O)N([C@H](C)CO)C[C@@H]1C | 3 | 11
COc1ccc([Si](C)(C)[C@@H]2[C@@H](CCn3cc([C@H](O)c4ccccc4)nn3)O[C@]3(C(=O)N(Cc4cccc(N5CCC5=O)c4)c4ccccc43)[C@H]2C)cc1 | -27 | -21
CN(C)C(=O)C[C@@H]1CC[C@@H]2[C@H](COC[C@@H](O)CN2S(=O)(=O)c2ccccc2)O1 | 11 | -2
N#C[C@H]1[C@H](c2ccc(C3=CCCC3)cc2)[C@H](CO)N1C(=O)NC1CCCC1 | 3 | -4
C[C@H](CO)N1C[C@H](C)[C@H](CN(C)Cc2ccc(C(=O)O)cc2)Oc2ccc(NC(=O)Cn3cnnn3)cc2CC1=O | 11 | 19
CCCC(=O)Nc1ccc2c(c1)OC[C@@H](C)N(Cc1ccccc1F)C[C@@H](C)[C@H](OC)CN(C)C2=O | -16 | -12
O=C(C[C@H]1C=C[C@H](NC(=O)c2ccccc2)[C@@H](CO)O1)Nc1ccc(-c2ccccc2)cc1 | 0 | 0
O=C(C[C@@H]1C[C@H]2c3cc(NC(=O)NC4CCCCC4)ccc3O[C@H]2[C@@H](CO)O1)NCc1ccncc1 | 3 | 2
C[C@@H]1CCCCO[C@H](CN(C)CC2CCCCC2)[C@@H](C)CN([C@H](C)CO)C(=O)c2cc(NS(=O)(=O)c3ccccc3)ccc2O1 | -5 | -2
CN(C)C(=O)C[C@@H]1CC[C@@H]2[C@H](COC[C@@H](O)CN2C(=O)C2CC2)O1 | 9 | 16
C[C@@H]1CN([C@@H](C)CO)C(=O)c2cc(NC(=O)c3ccccc3)ccc2O[C@@H](C)CCCCO[C@H]1CN(C)C(=O)Nc1ccc2c(c1)OCO2 | -6 | -4
C[C@H]1CN([C@@H](C)CO)C(=O)c2cc(NC(=O)c3ccncc3)ccc2O[C@@H]1CN(C)C | 10 | 3
C[C@H](C(=O)N(C)C[C@H]1OCc2ccccc2-c2c(n(C)c3ccccc23)C(=O)N([C@H](C)CO)C[C@H]1C)c1ccccc1 | ? | .
O=C(NC1Cc2ccccc2C1)[C@@H]1N[C@@H]2c3cccc(=O)n3C[C@@H]2[C@H]1CO | -1 | 3
C[C@@H]1CCCCO[C@@H](CN(C)C(=O)c2ccccc2)[C@H](C)CN([C@@H](C)CO)C(=O)c2cc(NC(=O)c3ccccc3)ccc2O1 | ? | .
O=C(Nc1ccc(F)cc1)N[C@@H]1CC[C@H](CCNC(=O)c2ccccc2F)O[C@@H]1CO | 4 | -1
C[C@H]1CN([C@@H](C)CO)C(=O)c2cccc(NC(=O)c3ccncc3)c2O[C@@H]1CN(C)S(=O)(=O)c1ccccc1 | 8 | 5
O=C(C[C@H]1CC[C@@H]2[C@H](COC[C@@H](O)CN2C(=O)Nc2cc(Cl)cc(Cl)c2)O1)N1CCCCC1 | -27 | -28
COc1ccc(S(=O)(=O)N(C)C[C@@H]2OCCCC[C@@H](C)Oc3ccc(NC(=O)C4CCCCC4)cc3C(=O)N([C@@H](C)CO)C[C@H]2C)cc1 | -22 | -20
Cc1ccc(S(=O)(=O)N(C)C[C@@H]2Oc3ccc(NC(=O)CCCN(C)C)cc3CC(=O)N([C@H](C)CO)C[C@@H]2C)cc1 | -28 | -25
C[C@@H]1CN([C@H](C)CO)C(=O)c2cc(NS(=O)(=O)c3ccc(F)cc3)ccc2O[C@@H]1CN(C)C(=O)Nc1cccc2ccccc12 | -21 | -18
COc1ccc(S(=O)(=O)N(C)C[C@@H]2Oc3ccc(NC(=O)Cn4cnnn4)cc3CC(=O)N([C@H](C)CO)C[C@@H]2C)cc1 | 1 | 0

In the list so far, ten have an aryl methoxy group:
SMILES | Vaccinia stage | Vaccinia stage Venus
COc1cccc(S(=O)(=O)N(C)C[C@@H]2Oc3ncc(C#Cc4ccccc4)cc3C(=O)N([C@H](C)CO)C[C@@H]2C)c1 | ? | .
COc1ccccc1-c1ccc2c(c1)O[C@@H](CN(C)C(=O)c1cccnc1)[C@H](C)CN([C@H](C)CO)S2(=O)=O | 13 | 8
COc1ccccc1CNC(=O)C[C@@H]1C[C@@H]2c3cc(NC(=O)C4CCOCC4)ccc3O[C@@H]2[C@H](CO)O1 | -4 | -7
COc1ccc2c3c(n(C)c2c1)[C@H](CO)N(S(C)(=O)=O)CC31CN(C(=O)Nc2cccc(F)c2)C1 | -5 | 5
CCS(=O)(=O)Nc1ccc2c(c1)C(=O)N(C)[C@H]1CC[C@H](CC(=O)NCc3ccc(OC)cc3)O[C@H]1CO2 | 11 | 6
COc1ccccc1S(=O)(=O)N[C@H]1C=C[C@H](CC(=O)NCc2cccc(F)c2)O[C@@H]1CO | 5 | 1
COc1ccccc1C#Cc1ccc([C@H]2[C@@H](C#N)N(C(=O)C3CCCCC3)[C@H]2CO)cc1 | ? | .
COc1ccc([Si](C)(C)[C@@H]2[C@@H](CCn3cc([C@H](O)c4ccccc4)nn3)O[C@]3(C(=O)N(Cc4cccc(N5CCC5=O)c4)c4ccccc43)[C@H]2C)cc1 | -27 | -21
COc1ccc(S(=O)(=O)N(C)C[C@@H]2OCCCC[C@@H](C)Oc3ccc(NC(=O)C4CCCCC4)cc3C(=O)N([C@@H](C)CO)C[C@H]2C)cc1 | -22 | -20
COc1ccc(S(=O)(=O)N(C)C[C@@H]2Oc3ccc(NC(=O)Cn4cnnn4)cc3CC(=O)N([C@H](C)CO)C[C@@H]2C)cc1 | 1 | 0

Further compounds follow:
SMILES | Vaccinia stage | Vaccinia stage Venus
CNC[C@@H]1Oc2ccc(NS(=O)(=O)c3ccccc3)cc2CC(=O)N([C@@H](C)CO)C[C@@H]1C | 13 | 3
C[C@@H]1CCCCO[C@H](CN(C)S(C)(=O)=O)[C@@H](C)CN([C@H](C)CO)C(=O)c2cc(NC(=O)NC3CCCCC3)ccc2O1 | 17 | 4
Cc1noc(C)c1NC(=O)Nc1ccc2c(c1)CC(=O)N([C@@H](C)CO)C[C@H](C)[C@H](CN(C)S(=O)(=O)c1ccc(F)cc1)O2 | 17 | -1
CC=Cc1ccc2n(c1=O)C[C@@H]1[C@@H](CO)[C@H](C(=O)NCCc3cn(C)cn3)N(C(=O)CC)[C@H]21 (mixture of isomers) | 1 | 1
CC(=O)Nc1ccc2c(c1)C(=O)N(C)[C@H]1CC[C@@H](CC(=O)NCc3ccccc3Cl)O[C@@H]1CO2 | -6 | -1
C/C=C/c1ccc([C@@H]2[C@H](CO)N(S(=O)(=O)Cc3ccccc3)C23CN(C(=O)C2CCOCC2)C3)cc1 | -18 | -1
C[C@@H]1CCCCO[C@H](CN(C)S(=O)(=O)c2cccs2)[C@H](C)CN([C@H](C)CO)C(=O)c2cc(NS(=O)(=O)c3ccc(F)cc3)ccc2O1 | -25 | -13
CN(C)CC(=O)N[C@@H]1CC[C@H](CCNS(=O)(=O)c2ccccc2)O[C@H]1CO | -5 | 0
COc1ccc(S(=O)(=O)N2[C@@H]3CNC[C@H]2C3c2ccc(-c3cccc(C)c3)cc2)cc1 (stereo partly drawn) | 6&4 | 10&1
C[C@@H]1CN([C@H](C)CO)C(=O)c2cc(NC(=O)Nc3ccc(C(F)(F)F)cc3)ccc2O[C@@H](C)CCCCO[C@@H]1CN(C)C(=O)NC1CCCCC1 | -1 | 4
O=C(Cc1ccccn1)N[C@H]1CC[C@H](CC(=O)N2CCCCC2)O[C@H]1CO | -10 | 1
CC(C)NC(=O)Nc1ccc2c(c1)C(=O)N([C@@H](C)CO)C[C@H](C)[C@@H](CN(C)Cc1ccc(C(F)(F)F)cc1)O2 | 9 | 11
